HIV TAR-Tat = TAR RNA-Tat peptide displacers, HIV-1, primary screen, biochemical, FRET, FAM/TAMRA-labeled Tat; HIV-1 TAR RNA, Tat peptide displacement FRET; stronger effect = higher value; z-score (no concentration beside the values); hit rate 0.6% among 100,000;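 note: score is relative to mean and SD of negative controls; some compounds called inactive have numbers as strong as hits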
CDC25B CDK2 inh = primary biochemical HTRF screen for blockers of M-phase inducer phosphatase 2 binding to CDK2/cyclin A | P30305+P24941 | HTRF CDC25B-CDK2/CyclinA binding, anti-His/anti-Flag; stronger effect = higher value | z-score (no concentration beside the values) | hit rate 0.72% among 94,000 | AID 1259370, 2018;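 note: score is relative to mean and SD of negative controls; strong numbers were not always called active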
Active calls of the source: *; . = not tested or not shown.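 Rule for the calls: active = z-score from 3 up in half or more of its runs; inactive = the rest.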

structure	CDC25B CDK2 inh	HIV TAR-Tat
CC(C)N1C(=O)C(O)(CC(=O)c2ccccc2)c2ccccc21 (stereo not drawn)	0.13	0.83
O=C(CCNc1ccc(-c2ccccc2)cc1)c1cccs1	-0.99	.
Cc1nn(S(=O)(=O)c2ccc(Br)cc2)c(C)c1S(=O)(=O)N1CCC(C)CC1	.	-0.03
CC1CCN(S(=O)(=O)N2CCCC(C(=O)NCc3cccs3)C2)CC1 (stereo not drawn)	.	-0.01
O=S(=O)(NCc1ccccn1)c1ccc(N2CCCCS2(=O)=O)cc1	.	1.48
COc1ccc(Cl)cc1S(=O)(=O)NCc1cc(C)n(-c2ccc(F)cc2)c1C	.	-1.42
O=C(O)c1cnn2c1NC(c1ccccc1)CC2C(F)(F)F (stereo not drawn)	-2.92	1.84
O=S(=O)(CCN(CCCc1ccccc1)S(=O)(=O)c1ccc(Cl)cc1)N1CCNCC1	.	1.99
COc1ccc(-c2cc(C)no2)cc1S(=O)(=O)N1CC(C)Sc2ccccc21 (stereo not drawn)	.	0.58
Cc1nc2nc(Cc3ccccc3)nn2c(C)c1Cl	-0.22	0.21
N/C(=N\O)c1ccc([N+](=O)[O-])o1	-1.58	.
Cc1cc2n(n1)CCCN2C(=O)CCC(=O)NCc1ccco1	.	1.38
CCC(O)c1nc2ccccc2n1CCCCOc1ccccc1OC (stereo not drawn)	-1.45	-1.38
Clc1ccccc1OCc1nc(-c2ccc(-n3cccc3)cc2)no1	-2.6	-1.26
CC(/C=C/c1ccccc1)=N\OC(=O)c1ccccc1Cl	-5.24	.
O=c1[nH]c(CNc2ccc(Br)cc2)nc2sc3c(c12)CCCC3	1.79	-4.76
CC(C)Cn1c(N2CCN(C)CC2)nc2c1c(=O)[nH]c(=O)n2C	0.62	.
O=C1CCS(=O)(=O)N1c1ccc(S(=O)(=O)N2CCN(c3ccccc3)CC2)cc1	1.44	0.76
CCCOC(=O)C1=C(C)NC2=C(C(=O)CC(c3ccccc3)C2)C1c1ccc(C)cc1 (stereo not drawn)	-1.41	0.48
O=C1c2ccccc2C(=O)C1(CO)c1ccccc1	-3.39	1.04
O=C(NCCO)C(=O)NCc1n[nH]c(=O)c2ccccc12	.	1.68
CCOC(=O)c1noc2nc(C)nc(NCc3ccc4c(c3)OCO4)c12	.	-0.58
O=C(NCc1cccnc1)N1c2ccccc2Sc2ccccc21	-1.69	-0.46
O=C(CN1C(=O)c2cccc3cccc(c23)C1=O)NCCN1CCOCC1	0.75	0.32
CSc1ccc(CNCCCSc2nnnn2C)cc1	-0.35	-0.24
CCOc1ccccc1CNCCSc1nnnn1C	-0.63	0.55
CCc1ccc2[nH]c(C)c(CN3CCCCC3CC)c(=O)c2c1 (stereo not drawn)	-0.38	.
CN(C1CCCCC1)C1CCN(S(=O)(=O)c2ccc(-c3cc(C(F)(F)F)on3)s2)CC1	.	0.08
CCOC(=O)CCc1c(C)nc2c(c1C)c(=O)n(C)c(=O)n2C	-1.51	-0.8
Cc1c(NC(=O)Nc2nccs2)sc2nc3n(c(=O)c12)CCC(C)CC3 (stereo not drawn)	-2.29	-0.81
N#CC(C#N)=C1C=CC=CC=C1	-1.95	.
CSc1sc(C(=O)Sc2ccc(Cl)cc2)c2c1C=CCC2	-9.19	.
CCC1CCCCN1Cc1ccc(CNC(=O)Nc2cn(CC(C)C)c(=O)c3ccccc23)o1 (stereo not drawn)	.	-1.88
NNC(=O)c1nc(Cc2ccc([N+](=O)[O-])cc2)no1	0.54	.
Clc1cccc(-n2ncc3c(Nc4ccc5c(c4)OCCO5)ncnc32)c1	.	0.28
Cn1c(=O)c2c(nc(NCCN)n2Cc2ccc(F)cc2)n(C)c1=O	0.92	1.66
CC(=O)N[C@H](C(=O)O)C(C)(C)SN=O	0.31	.
N#Cc1c(N)nc(SCC(=O)c2ccc(O)c(O)c2)c(C#N)c1-c1ccc(O)cc1	-0.49	.
COc1ccc(-c2noc(CN3CCOCC3)n2)cc1OC	-3.94	-1.39
Cc1ccnc(NS(=O)(=O)c2ccc(NC(=O)c3nn(-c4ccccc4)ccc3=O)cc2)n1	1.28	0.59
CCOC(=O)c1csc(Nc2nc3cc4c(cc3s2)OCO4)n1	-1.21	.
Cc1ccc2oc(SCCC(=O)Nc3cccc(N4CCCC4=O)c3)nc2n1	.	-0.04
CN(Cc1ccccc1)S(=O)(=O)c1ccc2[nH]c3c(c2c1)CCCCC3	.	2.37
O=c1[nH]c(CNc2ccccc2)nc2sc3c(c12)CCCC3	-2.03	-1.08
Clc1ccc(SCc2ccsc2-c2ncns2)cc1	-0.66	.
C=CCN1C(C(=O)c2ccccc2)=C(OC(=O)c2ccccc2OC)c2ccccc2S1(=O)=O	-3.65	.
CCNc1nc(Nc2ccc(OC)cc2)c2cnn(C)c2n1	.	0.81
COc1ccc(NC(=O)Nc2nnc(N3CCCC3)s2)c(OC)c1	-1.2	1.14
O=C(OCC(c1ccccc1)c1ccccc1)C1=COCCO1	-0.25	.
Cc1csc2c(SCC(=O)NN)ncnc12	-2.24	.
Cc1ccc(NS(=O)(=O)c2cc(-c3ccc(=O)[nH]n3)ccc2C)cc1Cl	-0.5	1.2
Cc1nc2c(cnn2-c2ccccc2)c(=O)n1NC(=O)Nc1ccc(Cl)c(Cl)c1	-0.31	.
O=C(Nc1cccnc1)c1cc2c(ccc3ccccc32)o1	-0.13	-0.75
O=S1(=O)C=C(CSc2cccs2)c2cc(Cl)ccc21	-0.95	.
CCOc1cc(C2c3c(oc4ccc(C)cc4c3=O)C(=O)N2Cc2ccc(C)cc2)ccc1O (stereo not drawn)	-0.75	-0.37
Cn1c(=O)oc2cc(S(=O)(=O)N3CCCC(C(=O)NC4CCCCCC4)C3)ccc21 (stereo not drawn)	-1.06	.

Further results.
structure	CDC25B CDK2 inh	HIV TAR-Tat
CCC(=O)N1CCc2cc(S(=O)(=O)CCC(=O)N3CC(C)CC(C)C3)ccc21 (stereo not drawn)	-0.41	.
O=C(CN1C(=O)COc2ccccc2C1=O)c1ccc(Cl)cc1	-0.85	-0.79
COCc1nc2ccccc2n1CCOc1ccccc1	-0.07	1.05
O=S(=O)(NCCSc1nnnn1-c1ccccc1)c1cccs1	-0.47	1.28
CCOC(=O)c1c(NC(C)=O)sc(C(=O)NC2CCCCC2)c1C	-0.13	.
O=c1[nH]n(-c2ccc(S(=O)(=O)N3CCN(C4CCCCC4)CC3)cc2)c(=O)c2ccccc12	-1.15	1.48
O/N=C/c1cnc(-c2ccccc2)[nH]1	1.1	.
O=C(Cc1noc2ccccc12)NCCCN1CCCC1=O	-2.14	1.09
NC(=O)N/N=C/c1ccc(-c2cc(C(F)(F)F)cc(C(F)(F)F)c2)s1	-1.26	.
COc1cccc(C2C3=C(CCCC3=O)Nc3nc(-c4cccc(Cl)c4)nn32)c1OC (stereo not drawn)	0.55	0.33
Cc1nn(CC(=O)NCCC2=CCCCC2)c(=O)c2c(-n3cccc3)n(-c3ccc(Cl)cc3)nc12	.	3.59
Cc1cc(-c2ccc(S(=O)(=O)N3CCN(c4ccc(F)cc4)CC3)s2)on1	.	1.79
O=C(NNC(=O)c1ccccc1CO)c1ccc(Cl)c(Cl)c1	-2.24	.
COC(=O)C(Cc1c[nH]c2ccccc12)NS(=O)(=O)c1ccc(CNC(=O)c2ccccc2)s1 (stereo not drawn)	-0.37	.
O=C(NCc1ccc(C(F)(F)F)cc1)c1cc2ccc3ccccc3c2s1	-3.68	.
Cc1ccc(CNC(=O)Cn2nc(C)n3c(cc4occc43)c2=O)cc1	0.57	2.08
O=C1CN(C(=O)CSc2ccccc2)c2ccccc2N1	-1.02	-1.44
COc1ccc(-n2ncc(C(=O)N3CCN(c4ccccn4)CC3)c2C)cc1	-1.45	.
O=C(Nc1nc(-c2cccs2)cs1)c1ccc(S(=O)(=O)N2CCCC2)cc1	.	0.53
Brc1ccc(Cc2nn[nH]n2)cc1	-1.78	1.33
Oc1ccccc1C1=NC(c2ccccc2Cl)NC(c2cccnc2)C1 (stereo not drawn)	-0.59	3.11
O=C(c1cccs1)N1CCN(Cc2ccc3c(c2)OCO3)CC1	-1.55	1.72
CN1C(=O)c2ccccc2C(C(=O)NCCCN(Cc2ccco2)C2CCCC2)C1c1cccs1 (stereo not drawn)	.	2.95
CC1CCC(NC(=O)C2CCN(S(=O)(=O)c3ccc4c(c3)oc(=O)n4C)CC2)CC1 (stereo not drawn)	-1.35	.
Clc1ccc(CNc2c(-c3ccccc3)nc3ncccn23)cc1	.	0.69
Cc1cc(=O)n2nc(N3CCCC3C(=O)Nc3c(F)cc(F)cc3Br)sc2n1 (stereo not drawn)	-0.49	-0.51
COCCNC(=O)c1cc2n(n1)CC(C)(C(=O)NCCC(C)C)N(C)C2=O (stereo not drawn)	.	-0.15
CCOC(Cc1nnc(SCC(=O)Nc2ccc(Cl)cc2Cl)n1C)OCC	-0.17	.
CC(C)Cn1cc(NC(=O)NCc2ccccn2)c2ccccc2c1=O	.	0.94
CN(C(=O)C1=Cc2cc(Cl)ccc2OC=C1)c1ccccc1	0.61	-0.29
Cc1nc2ccccn2c(=O)c1NC(=O)Cc1ccc(Cl)cc1	.	0.56
O=C(Nc1ccccc1-c1ccccc1)c1cccs1	-2.5	.
CCc1cc2c(cc3c(=O)n(CC(=O)NC(C)c4ccc5c(c4)OCCO5)nc(CC)n32)s1 (stereo not drawn)	-1.35	1.5
CCn1c(N2CCC(C(=O)N3CCC(N4CCCCC4)CC3)CC2)cc(=O)n(C)c1=O	.	0.23
CC(C)Cn1nccc1-c1ccc2c(c1)CN1CCC(O)C1=N2 (stereo not drawn)	.	1.04
Cc1nn2cnnc2c(C)c1CCC(=O)NCCSCc1ccco1	.	-0.73
Cc1nc2nc(CCc3ccccc3)[nH]n2c(=O)c1C	-0.05	0.13
N#Cc1c(NC(=O)COc2ccccc2)sc2c1CCCC2	-1.96	1.56
C/C(=N\Oc1nc(-c2ccccc2)ns1)c1cccs1	-0.57	.
COC(=O)C(N)Cc1ccc(Cl)cc1 (stereo not drawn)	-1.89	.

7 records picked at random from those above:
structure	CDC25B CDK2 inh	HIV TAR-Tat
Cc1nn2cnnc2c(C)c1CCC(=O)NCCSCc1ccco1	.	-0.73
Cc1nc2nc(CCc3ccccc3)[nH]n2c(=O)c1C	-0.05	0.13
CCn1c(N2CCC(C(=O)N3CCC(N4CCCCC4)CC3)CC2)cc(=O)n(C)c1=O	.	0.23
CC(C)Cn1nccc1-c1ccc2c(c1)CN1CCC(O)C1=N2 (stereo not drawn)	.	1.04
N#Cc1c(NC(=O)COc2ccccc2)sc2c1CCCC2	-1.96	1.56
COC(=O)C(N)Cc1ccc(Cl)cc1 (stereo not drawn)	-1.89	.
CCc1cc2c(cc3c(=O)n(CC(=O)NC(C)c4ccc5c(c4)OCCO5)nc(CC)n32)s1 (stereo not drawn)	-1.35	1.5

New compounds follow
structure	CDC25B CDK2 inh	HIV TAR-Tat
COc1ccccc1Nc1nnc(-n2nc(C)cc2C)c2ccccc12	.	1.25
COC(=O)C1=C(N)Oc2cc(C)oc(=O)c2C1c1cc(OC)c(OC)c(OC)c1 (stereo not drawn)	-0.23	.
Cc1nn(-c2ccccc2)c(-n2cccc2)c1CNC(=O)NCC1CCCO1 (stereo not drawn)	.	-1.29
Clc1ccc2c(c1)-c1c(cnc3cc(-c4ccccc4)nn13)CO2	-1.74	-0.88
CCN1CCN(c2nnc(-n3cccc3CNc3ccc(F)cc3F)s2)CC1	.	1.13
CCOc1ccc(NC(=O)N2CCN3CCCCC3C2)cc1 (stereo not drawn)	.	0.41
CC12CN3CC(c4ccccc4)(CN(C1)C3c1ccc(Cl)cc1)C2=O (stereo not drawn)	-1.5	1.67
Cc1nn(-c2nc3ccccc3n2C)c2c1C(c1ccc(Br)cc1)CC(=O)N2 (stereo not drawn)	.	2.18
Cn1c(=O)oc2cc(S(=O)(=O)CCC(=O)Nc3ccc(Cl)cc3)ccc21	.	0.89
CCC(C)(C(=O)NC1CCCCC1)N(Cc1ccco1)C(=O)CC1NC(=O)NC1=O (stereo not drawn)	-0.18	.
O=C(c1cc2cc3ccc(Cl)cc3nc2o1)N1CCN(Cc2ccc3c(c2)OCO3)CC1	0.31	.
Cc1cn2c(=O)c(S(=O)(=O)Nc3ccc(Br)cc3)c(C)nc2s1	.	-1.02
Cc1ccsc1/C=C/c1ccnc(Sc2ncccc2[N+](=O)[O-])n1	-1.21	.
CCNc1nc2c(c(=O)n(C)c(=O)n2C)n1CCC(C)C	0.65	-0.69
CC(C(=O)NC1CCCC1)n1sc2ccccc2c1=O (stereo not drawn)	-0.88	2.18
CCN(CC)CCn1c(NCc2ccccn2)nc2ccccc21	2.78	0.98

Quoted from the listing:
CCNc1nc2c(c(=O)n(C)c(=O)n2C)n1CCC(C)C – CDC25B CDK2 inh = 0.65
O=C(c1cc2cc3ccc(Cl)cc3nc2o1)N1CCN(Cc2ccc3c(c2)OCO3)CC1 – CDC25B CDK2 inh = 0.31

Continued.
structure	CDC25B CDK2 inh	HIV TAR-Tat
CCn1c2ccccc2c2cc(C3C=C(C(=O)O)Nc4nnnn43)ccc21 (stereo not drawn)	.	1.38
CSc1sc(C(=O)O)c2c1S(=O)(=O)N(C)c1ccsc1-2	-1.11	.
O=C(CSc1nnc2ccccn12)Nc1nc(-c2ccc(Cl)cc2)ns1	-0.45	1.59
O=C(Nc1c2c(nn1-c1cccc(Cl)c1)CSC2)C(=O)N1CCCC1	.	1.9
O=C(O)CCc1ccc(-c2ccccc2)[nH]1	-1.34	-4.38

Assay outcomes: PubChem BioAssay, Center for Chemical Genomics, University of Michigan
